# From PubChem BioAssay
# NPYLR7 ag: agonists of mosquito NPYLR7 receptor, primary screen, cell-based, Aedes aegypti, calcium fluorescence, mosquito biting behavior. Aedes aegypti neuropeptide Y-like receptor 7 (NPYLR7). HEK293T NPYLR7/Galpha15, GCaMP6s calcium fluorescence. activation, % at 10 µM. 270,000 compounds, 0.15% hits; in the data active = activation above about 40%;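 note: 0% = vehicle and 100% = reference agonist at the receptor; some compounds past the cut are filed as inactive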
# NPYLR7 ag max-min: second read-out of NPYLR7 ag, no call of its own (marks repeat the call); activation, %; measured here: Max-Min RFU normalised activation; some inactives read as strong as hits;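 span of the calcium signal over five minutes; 0% = vehicle and 100% = native peptide agonist; compound fluorescence can raise it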
# * = called active by the depositor. An excerpt, so the mix of outcomes need not match the whole.
1	CC(C)n1ccnc1CN1CCOC(CC2CCCCC2)C1 (centres undefined)
2	Cc1ccc2nc(N3CCCCC3)c(C=C3SC(=S)N(C)C3=O)c(=O)n2c1
3	Cn1c(NC(=O)c2ccc(Cl)cc2)cc(=O)n(C)c1=O
4	COC(=O)c1c(C)n(C)c2ccc(OCC(=O)NC(C)C)cc12
5	CCc1ccc(Cl)c(CC)c1NC(=O)C(=O)NCc1nncn1CC
6	Cn1c(SCC(=O)Nc2ccccc2)nc2sc3c(c2c1=O)CCCC3

Screen / compound no. | 1 | 2 | 3 | 4 | 5 | 6
NPYLR7 ag | 7 | 1 | 7 | -1 | 5 | 3
NPYLR7 ag max-min | 4 | -1 | 8 | -3 | 3 | 0

7	CC(C)c1cnc(CN2CCc3ccc(S(=O)(=O)N(C)C)cc32)o1
8	Cc1ccc(C(=O)N2CCCC(CCc3ccc(F)c(F)c3)C2)cc1O (centres undefined)
9	CC(=O)Nc1ccc(Nc2cc3[nH]c(-c4cccc(C(F)(F)F)c4)cc3cn2)cc1
10	COCCCn1c(O)c(C=Nc2ccc(C(C)=O)cc2)c(C)c(C#N)c1=O
11	CCCC(=O)N1CCC1(C)C(=O)Nc1cc(C)on1 (centres undefined)
12	CCOc1ccc(Nc2sc(C(=O)c3ccc(F)cc3)c(N)c2S(=O)(=O)CC)cc1

Screen / compound no. | 7 | 8 | 9 | 10 | 11 | 12
NPYLR7 ag | 2 | 6 | -15 | 7 | 7 | -4
NPYLR7 ag max-min | 12 | 4 | -15 | 4 | 2 | -7

13	CCn1c(COc2ccc(OC)cc2C(N)=O)nc2cc(F)ccc21
14	COc1cccc(C(=O)N2CCN(c3cc(Cl)nc(SCC(=O)NC(C)CCc4ccccc4)n3)CC2C)c1 (centres undefined)
15	O=C(NNc1nc2cc3c(cc2s1)OCO3)c1ccc(S(=O)(=O)N2CCCC2)cc1
16	COC(=O)CCCC(=O)N1CCN(c2nc3nccc(-c4cccc(C(F)(F)F)c4)n3n2)CC1
17	Cc1ccc(C)c(-n2nc(-c3ccco3)cc2C(=O)O)c1
18	O=c1c(N=Nc2ccc(Cl)cc2Cl)c(-c2ccccc2)[nH]n1-c1ccc([N+](=O)[O-])cc1

Screen / compound no. | 13 | 14 | 15 | 16 | 17 | 18
NPYLR7 ag | 0 | 4 | -10 | 1 | 7 | -21
NPYLR7 ag max-min | 0 | 10 | -8 | -4 | 8 | -22

19	C=CCn1c(COc2ccc(F)cc2)n[nH]c1=S
20	CN(C1CCCc2ccccc21)S(=O)(=O)c1ccc(F)c(F)c1 (centres undefined)
21	COc1ccccc1-n1cnn(CN2CCCc3ccc(F)cc32)c1=S
22	Cc1[nH]nc2c1C(c1ccoc1)C(C#N)C(=N)O2 (centres undefined)
23	Cc1cc(C)c(C(N)=O)c(N2CCN(C(=O)c3ccco3)CC2)n1
24	O=C1CSC(=O)N1CC(=O)N1CCc2c([nH]c3ccccc23)C1c1ccccc1F (centres undefined)

Screen / compound no. | 19 | 20 | 21 | 22 | 23 | 24
NPYLR7 ag | 7 | 8 | 14 | -5 | -2 | -11
NPYLR7 ag max-min | 97 | 11 | 14 | -4 | 1 | -14

25	CCCC12CN(C(=O)[C@@H](Cc3ccccc3)NC(=O)OCc3ccccc3)CC1C(=O)NC(=O)N2 (some centres undefined)
26	CC(=O)c1cccc(NCN2C(=O)c3ccccc3C2=O)c1
27	CC1CCc2c(Cl)cc(Cl)c(O)c2N1 (centres undefined)
28	c1ccc(CCCc2noc(-c3ccc(N4CCCO4)nc3)n2)cc1
29	O=C(NCc1ccco1)c1cc(-c2ccc(F)cc2)nc2cc(-c3ccc(Cl)cc3)nn12
30	O=C(N=c1sccn1Cc1ccccc1F)C1CCN(C(=O)c2cccs2)CC1

Screen / compound no. | 25 | 26 | 27 | 28 | 29 | 30
NPYLR7 ag | -12 | 0 | 0 | 0 | 18 | 10
NPYLR7 ag max-min | -15 | 1 | 34 | -1 | 15 | 3

31	COC(=O)C(Cc1cnc[nH]1)NC(=O)Cc1c(F)cccc1F (centres undefined)
32	c1nnnn1CCc1nc(C2CC2)n[nH]1
33	O=C(CSc1nnc2ccccn12)Nc1c(Cl)cc(Cl)cc1Cl
34	O=C(CN1CCCC(O)C1)N1CCc2sccc2C1c1cccs1 (centres undefined)
35	CCn1cccc(-c2nnc(SCC(=O)Nc3ccc(Cl)cc3)n2C)c1=O
36	Cc1ccoc1C(=O)N1CCCC(CCC(=O)Nc2ccc(C(F)(F)F)cc2)C1 (centres undefined)

Screen / compound no. | 31 | 32 | 33 | 34 | 35 | 36
NPYLR7 ag | -3 | 18 | -6 | 7 | 6 | 13
NPYLR7 ag max-min | 238 | 8 | -12 | 1 | 5 | 6

37	CCCC1CCc2nc(NS(=O)(=O)c3cnn(C)c3)sc2C1 (centres undefined)
38	Cc1cc(C2CCC2)nc(NCC(c2ccccn2)N2CCOCC2)n1 (centres undefined)
39	Cc1cccc2sc(N(Cc3ccccn3)C(=O)c3ccc(S(C)(=O)=O)cc3)nc12
40	CC(C)CC1(C)N=C(c2ccccc2)C(=S)N1 (centres undefined)
41	CCOc1ccc(C(=O)NCC2CCCN2S(=O)(=O)c2ccccc2)cc1 (centres undefined)
42	Cc1c(C(=O)N2CCC(N(C)c3ccccc3)CC2)[nH]c2c1C(=O)CCC2

Screen / compound no. | 37 | 38 | 39 | 40 | 41 | 42
NPYLR7 ag | 4 | 0 | -3 | 11 | -8 | -5
NPYLR7 ag max-min | 4 | -2 | -9 | 3 | -9 | -8

43	Cc1ccc(NC(=O)N(C)c2c(C)noc2C)cc1
44	CC1(C(=O)NS(=O)(=O)c2ccc(Cl)cc2)CCN1C(=O)c1ccccc1 (centres undefined)
45	COc1cccc2sc(N(CCCN(C)C)C(=O)c3ccc(Br)cc3)nc12
46	CC(C)(C)c1nc(C(C)(C)NC(=O)C23CC4CC(CC(Br)(C4)C2)C3)no1
47	O=C(NOC1CCCCO1)c1cn[nH]c1-c1ccc(Cl)cc1 (centres undefined)
48	O=C(c1cc(-c2ccc([N+](=O)[O-])cc2)nn1-c1ccccc1Cl)N1CCN(Cc2ccc3c(c2)OCO3)CC1

Screen / compound no. | 43 | 44 | 45 | 46 | 47 | 48
NPYLR7 ag | 0 | -1 | 7 | 8 | 13 | 15
NPYLR7 ag max-min | 0 | -2 | 3 | 3 | 11 | 18

49	COc1ccccc1NC(=O)N(CC(=O)Nc1cc(C(C)(C)C)nn1-c1cccc(C)c1)CC(C)C
50	COc1cccc(-c2nccn2CCc2scnc2C)c1OC
51	C=CCOCC(O)CN1CCC(=O)N(CCOC)Cc2cc3c(cc21)OCO3 (centres undefined)
52	COc1ccc(-c2csc(=Nc3cccc(Cl)c3)n2Cc2cccc(OC)c2)cc1
53	COC(=O)[C@@H]1CN(C(=O)CC(C)(C)C)CCN1C(=O)CC(C)(C)C
54	O=C(c1coc(CN2CCc3ccccc3C2)n1)N1CCSCC1

Screen / compound no. | 49 | 50 | 51 | 52 | 53 | 54
NPYLR7 ag | 16 | 12 | 36 | -3 | -4 | 18
NPYLR7 ag max-min | 17 | 9 | 42 | -4 | -8 | 13

# For convenience, some entries already given.
1	CC(C)n1ccnc1CN1CCOC(CC2CCCCC2)C1 (centres undefined)
2	Cc1ccc2nc(N3CCCCC3)c(C=C3SC(=S)N(C)C3=O)c(=O)n2c1
3	Cn1c(NC(=O)c2ccc(Cl)cc2)cc(=O)n(C)c1=O
4	COC(=O)c1c(C)n(C)c2ccc(OCC(=O)NC(C)C)cc12
5	CCc1ccc(Cl)c(CC)c1NC(=O)C(=O)NCc1nncn1CC
6	Cn1c(SCC(=O)Nc2ccccc2)nc2sc3c(c2c1=O)CCCC3
7	CC(C)c1cnc(CN2CCc3ccc(S(=O)(=O)N(C)C)cc32)o1
8	Cc1ccc(C(=O)N2CCCC(CCc3ccc(F)c(F)c3)C2)cc1O (centres undefined)

Screen / compound no. | 1 | 2 | 3 | 4 | 5 | 6 | 7 | 8
NPYLR7 ag | 7 | 1 | 7 | -1 | 5 | 3 | 2 | 6
NPYLR7 ag max-min | 4 | -1 | 8 | -3 | 3 | 0 | 12 | 4

9	CC(=O)Nc1ccc(Nc2cc3[nH]c(-c4cccc(C(F)(F)F)c4)cc3cn2)cc1
10	COCCCn1c(O)c(C=Nc2ccc(C(C)=O)cc2)c(C)c(C#N)c1=O
11	CCCC(=O)N1CCC1(C)C(=O)Nc1cc(C)on1 (centres undefined)
12	CCOc1ccc(Nc2sc(C(=O)c3ccc(F)cc3)c(N)c2S(=O)(=O)CC)cc1
13	CCn1c(COc2ccc(OC)cc2C(N)=O)nc2cc(F)ccc21
14	COc1cccc(C(=O)N2CCN(c3cc(Cl)nc(SCC(=O)NC(C)CCc4ccccc4)n3)CC2C)c1 (centres undefined)

Screen / compound no. | 9 | 10 | 11 | 12 | 13 | 14
NPYLR7 ag | -15 | 7 | 7 | -4 | 0 | 4
NPYLR7 ag max-min | -15 | 4 | 2 | -7 | 0 | 10

# Going on with the list.
55	NS(=O)(=O)c1ccc(N2N=C(c3ccccc3)CC2c2ccccc2)cc1 (centres undefined)
56	Cc1nc(-c2ccccc2)nc(N2CCN(C(=O)c3ccc(F)cc3)CC2)c1Cc1c(F)cccc1Cl
57	Cc1ccc(C(c2c(O)cc(C)n(Cc3cccnc3)c2=O)N2CCCCC2)cc1 (centres undefined)
58	O=C(NCc1ccco1)c1cc(-c2ccc(F)cc2)nc2cc(-c3ccccc3)nn12
59	Cn1ncc2c(N3CCC(OCc4cccnc4)CC3)nc(C(C)(C)C)nc21
60	CNS(=O)(=O)c1ccc(CN2CCN(c3nc(C)cnc3C)CC2)cc1

Screen / compound no. | 55 | 56 | 57 | 58 | 59 | 60
NPYLR7 ag | -7 | -4 | 9 | -11 | 0 | 3
NPYLR7 ag max-min | -5 | -1 | 2 | -4 | -2 | -1

61	CC(Cn1cncn1)N1CCN(c2cnn(C)c(=O)c2)CC1 (centres undefined)
62	CC1CCC2(CC1)NC(=O)N(CC(=O)Nc1sc3c(c1C(N)=O)CCC3)C2=O (centres undefined)
63	COC12C=CC(c3ccccc31)c1c(F)c(F)c(F)c(F)c12 (centres undefined)
64	CN(C)S(=O)(=O)N=C1C=CC(=NS(=O)(=O)N(C)C)C=C1

Screen / compound no. | 61 | 62 | 63 | 64
NPYLR7 ag | 0 | -5 | 10 | -7
NPYLR7 ag max-min | -4 | -6 | 3 | -12

# One compound at a time, as listed above.
# Entry for `CC1CCC2(CC1)NC(=O)N(CC(=O)Nc1sc3c(c1C(N)=O)CCC3)C2=O` (centres undefined) : NPYLR7 ag = -5; NPYLR7 ag max-min = -6
# Entry for `CN(C)S(=O)(=O)N=C1C=CC(=NS(=O)(=O)N(C)C)C=C1` : NPYLR7 ag = -7; NPYLR7 ag max-min = -12
